Bioassay records (PubChem)
CDC25B-CDK2 inh: primary biochemical HTRF screen for blockers of M-phase inducer phosphatase 2 binding to CDK2/cyclin A | HTRF CDC25B-CDK2/CyclinA binding, anti-His/anti-Flag; stronger effect = higher value | P30305+P24941 | z-score (test concentration not listed) | AID 1259370, 2018 | hit rate 0.72% among 94,000;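 further: score is relative to mean and SD of negative controls; strong numbers were not always called active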
HIV TAR-Tat: TAR RNA-Tat peptide displacers, HIV-1, primary screen, biochemical, FRET, FAM/TAMRA-labeled Tat; HIV-1 TAR RNA, Tat peptide displacement FRET; stronger effect = higher value; hit rate 0.6% among 100,000; z-score (concentration not given with the values); AID 1259389, 2018;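 further: score is relative to mean and SD of negative controls; some compounds called inactive have numbers as strong as hits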
* hit, by the source's call; . = no result given.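 How the source made its calls: active means z-score from 3 up in half or more of its runs; inactive means the rest.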

compound,CDC25B-CDK2 inh,HIV TAR-Tat
Cc1cc2c(cc1S(=O)(=O)NC(C)(C)C)OCCN2C,.,2.2
CC(C)(C)c1cccc(C2(O)C(=O)c3ccccc3C2=O)c1O,-0.95,.
CCCCCC(=O)N1c2ccccc2NC2=C(C(=O)CC(c3ccc(OC)cc3)C2)C1c1ccco1 (stereo not drawn),-2.8,.
O=C(Nc1ccc(F)cc1F)C1CCN(c2ncnc3c2nc2n3CCCCC2)CC1,.,-0.23
CC1=C(C(=O)OC(C)C)C(c2ccc(O)cc2)n2c(nc3ccccc32)N1 (stereo not drawn),-1.4,0.14
Cc1ccc2cc3c(nc2c1)N(C(=O)C(C)C)CC3,1.6,0.54
CC(=O)N1CCc2cc(Br)cc(S(=O)(=O)NCc3nc4nc(C)cc(C)n4n3)c21,-1.5,1.5
O=c1c2sccc2nc(SCc2cc(=O)n3cc(Cl)ccc3n2)n1Cc1ccccn1,-2,.
COc1ccc(CCNS(=O)(=O)c2ccc(N3CCCCS3(=O)=O)cc2)cc1OC,.,0.46
O=C(COc1ccccc1Cl)Nc1onc2c1CCCC2,-0.1,0.15
O=S1(=O)CCCCN1c1ccc(S(=O)(=O)N2CCCCC2)cc1,.,-0.44
Cc1nn(C(=O)c2ccco2)c(C)c1Sc1ccc(Cl)cc1,-0.71,-1.2
COc1ccc(-c2c(C(F)(F)F)oc3c(CN4CCCCC4)c(O)ccc3c2=O)cc1OC,-0.64,1.4
Cc1nc(-c2ccc(C)c(S(=O)(=O)Nc3ccc(F)c(F)c3)c2)cs1,.,1.3
CN(CCNC(=O)Cn1ncc2c([nH]c3ccccc32)c1=O)C1CCCCC1,.,0.86
COC(=O)c1ccc(C2Oc3c(OC)cccc3C3CC(c4cc(OC)ccc4O)=NN32)cc1 (stereo not drawn),-0.5,-1
COc1ccc(C2NC(=O)c3sc(=S)n(-c4ccccc4)c3N2)cc1 (stereo not drawn),-2.5,1.2
O=C(Nc1nnc(Cc2ccccc2F)s1)C(=O)c1c[nH]c2ccccc12,-1.9,2.8
CN1C(=O)Cc2cc(S(=O)(=O)CCC(=O)N3CCN(c4ccccc4)CC3)ccc21,.,1.1
CCCN1CCN(S(=O)(=O)c2ccc3c(c2)NC(=O)CC(C)S3)CC1 (stereo not drawn),.,-1.4
O=C1CC(c2ccc(F)cc2F)C2=C(CC(c3cccs3)CC2=O)N1 (stereo not drawn),-0.28,1.1
CCOC(=O)OC(C)OC(=O)C1N2C(=O)C(NC(=O)[C@H](N)c3ccccc3)C2SC1(C)C (stereo partly drawn),.,1
COc1ccc(CNS(=O)(=O)c2ccc3[nH]c4c(c3c2)CCCCC4)cc1,.,0.37
Cc1ccccc1N1C(=O)CN(Cc2cccs2)C1=S,-2,.
Cc1cc(NC(=O)CN(C)S(=O)(=O)c2ccc3c(c2)CC(C)N3C(=O)C2CC2)c2ccccc2n1 (stereo not drawn),.,2.2
COc1ccc(/C=C/c2nc(-c3ccccc3O)n[nH]2)cc1,-0.82,-0.25
CCc1ccc(S(=O)(=O)NCc2cccn2Cc2cc(C)ccc2C)cc1,.,1.9
CCCOC(=O)c1ccc(NC(=O)CCCC(=O)Nc2ccc(C(=O)OCCC)cc2)cc1,-2.8,.
NCCc1nnc(SCc2ccccc2Cl)o1,-1,-0.04
Cc1ccc(S(=O)(=O)NCc2ccc3[nH]c4c(c3c2)CCCC4)cc1C,-2,1.9
O=S(=O)(CCN(CC1CCCO1)S(=O)(=O)c1ccc(F)cc1)N1CCNCC1 (stereo not drawn),.,2.2
Cc1ccc(C(=O)NNc2ncnc3cc(C(C)(C)C)sc23)cc1,-2.6,.
CCN1CCN(c2ncc3c(n2)CCN(Cc2cc(OC)ccc2OC)C3)CC1,.,1.2
O=C1CC(=O)Nc2cc(S(=O)(=O)Nc3ccc4c(c3)OCO4)ccc2N1,.,18*
CC(C)CCNc1ncnc2onc(-c3cc(F)cc(F)c3)c12,.,0.8
CCOC(=O)c1cc(S(=O)(=O)N(C)CC(=O)N2c3ccccc3CC2C)cn1C (stereo not drawn),.,0.45
CC(NC(=O)C1=CC(c2ccco2)=NS(=O)(=O)N1C)c1ccccc1 (stereo not drawn),-1.6,-0.19
COc1ccc(/C(O)=C2\C(=O)C(=O)N(c3nnc(C)s3)C2c2ccc(Br)cc2)cc1 (stereo not drawn),-2.3,-1.1
COc1cccc(C2N(c3cccc(Cl)c3)C(=O)C3CCCN32)c1OC (stereo not drawn),-1.6,1.6
O=C(CCc1nc2cccnc2n1-c1ccccc1)N1CCOCC1,0.13,0.04
CCOC(=O)c1sc(C)nc1C1CCN(C(=O)OCC)CC1,1.3,1.5
Cn1c(C(=O)N2CCC(C(=O)N3CCN(C4CCCCC4)CC3)CC2)cc2sccc21,-1.8,.
O=S(=O)(NCCc1ccccn1)c1cc(S(=O)(=O)c2ccccc2)cs1,-0.82,.
O=C(CSc1nc2ccccc2nc1N1CCCC1)N1CCN(C2CCCCC2)CC1,-1.3,-1.1
COc1ccc(-c2cc(C)no2)cc1S(=O)(=O)Nc1c(C)cc(C)cc1C,.,-1.8
O=C(NC1CCCCC1)C1CCC(CNc2c(N3CCCC3)c(=O)c2=O)CC1 (stereo not drawn),0.19,1.8
CC(C)N(C(=O)Cn1cc(SCC(=O)NC2CCCCC2)c2ccccc21)C(C)C,.,-0.07
CCOC(=O)C1=C(C)Nc2nnnn2C1c1ccc(OCc2ccccc2)c(OC)c1 (stereo not drawn),0.27,-0.03

Reprinted from the entries so far (2 entries):
compound,CDC25B-CDK2 inh,HIV TAR-Tat
CC(C)N(C(=O)Cn1cc(SCC(=O)NC2CCCCC2)c2ccccc21)C(C)C,.,-0.07
CCOC(=O)C1=C(C)Nc2nnnn2C1c1ccc(OCc2ccccc2)c(OC)c1 (stereo not drawn),0.27,-0.03

Following part.
compound,CDC25B-CDK2 inh,HIV TAR-Tat
OC(CS)C(O)CS (stereo not drawn),.,0.17
O=C(NCC(c1cccs1)S(=O)(=O)c1ccccc1)c1cccs1 (stereo not drawn),.,1.4
C=CCn1c(=S)[nH]c2sc3c(c2c1=O)CC(C(C)C)OC3 (stereo not drawn),0.45,.
CC1=C(C(=O)OCC2CCCO2)C(c2cccc(Br)c2)C2=C(CCCC2=O)N1 (stereo not drawn),-1.4,0.88
O=C(Nc1nc2ccccc2n1CCOc1ccccc1)c1ccco1,-1.4,.
CCCSc1ccc2nc(NC(=O)OC)[nH]c2c1,.,2.2
Fc1cccc(Nc2c3c(nc4ncnn24)CCCC3)c1,.,0.7
CCc1ccc(-c2cc(C)no2)cc1S(=O)(=O)N(C)c1ccc(C)c(C)c1,.,-0.08

6 compounds out of the list, arranged by molecular weight, high to low:
compound,CDC25B-CDK2 inh,HIV TAR-Tat
CC1=C(C(=O)OCC2CCCO2)C(c2cccc(Br)c2)C2=C(CCCC2=O)N1 (stereo not drawn),-1.4,0.88
CCc1ccc(-c2cc(C)no2)cc1S(=O)(=O)N(C)c1ccc(C)c(C)c1,.,-0.08
O=C(NCC(c1cccs1)S(=O)(=O)c1ccccc1)c1cccs1 (stereo not drawn),.,1.4
O=C(Nc1nc2ccccc2n1CCOc1ccccc1)c1ccco1,-1.4,.
C=CCn1c(=S)[nH]c2sc3c(c2c1=O)CC(C(C)C)OC3 (stereo not drawn),0.45,.
CCCSc1ccc2nc(NC(=O)OC)[nH]c2c1,.,2.2

Other entries.
compound,CDC25B-CDK2 inh,HIV TAR-Tat
CCSc1ncnc2c1sc1nc(-c3ccco3)c3c(c12)CC(C)(C)OC3,-1.7,2.8
CCOc1ccc(N2CC(O)Cn3c2nc2c3c(=O)n(C)c(=O)n2C)cc1 (stereo not drawn),-0.1,.
CCN1C(=O)Cc2cc(NC(=O)CC(C)C)ccc21,.,1.8
COc1ccc(-n2c(Cc3cccn3C)nnc2SCC(N)=O)cc1,0.16,-2.7
O=C(Nc1nc(-c2nc3ccccc3s2)cs1)c1ccccc1F,.,2.8
CCOC(=O)c1ccc(N2C(=O)c3n[nH]c(-c4ccco4)c3C2c2ccc(Br)cc2)cc1 (stereo not drawn),.,-2.5
CCOC(=O)c1ccccc1N1C(=O)C2C3c4ccccc4C(C)(c4ccccc43)C2C1=O (stereo not drawn),-2.6,.
Cc1ccc(C(c2sc3nc(C)nn3c2O)N2CCN(c3ccccc3F)CC2)cc1 (stereo not drawn),-1.7,.

The list goes on.
structure | CDC25B-CDK2 inh | HIV TAR-Tat
O=C(CCCn1c2ccccc2c2cn[nH]c(=O)c21)NCCCc1ccccc1 | -3.8 | 0.65
CCN1CCN(c2nc3c(S(=O)(=O)c4ccccc4)nnn3c3ccccc23)CC1 | . | -0.47
O=C(NCC1CCCCC1)c1n[nH]c(=O)c2ccccc12 | -0.19 | -0.06
CSc1ncc(Cl)c(C(=O)N(Cc2ccc(N(C)C)cc2)Cc2ccco2)n1 | -0.17 | 2.9
CC(C)C1c2cccn2CCN1C(=O)Nc1ccc(F)c(Cl)c1 (stereo not drawn) | . | 0.13
O=S(=O)(c1ccc(-c2cc(C(F)(F)F)on2)s1)N1CCN(c2ccccc2)CC1 | . | 2.1
CN(C)S(=O)(=O)c1ccc(/C(O)=C2\C(=O)C(=O)N(CCN3CCOCC3)C2c2ccccc2)cc1 (stereo not drawn) | -2 | 1.1
CN(C)c1ccc(C(CNS(=O)(=O)c2ccc(F)cc2F)N2CCOCC2)cc1 (stereo not drawn) | . | -0.39
CC(C)OC(=O)C(C)Oc1ccc2c(=O)c(Oc3ccccc3Cl)coc2c1 (stereo not drawn) | -0.54 | .
CN(C)CCNC(=O)NC1COc2ccccc2C1 (stereo not drawn) | . | 0.52
Fc1ccc(-c2nnc3sc(/C=C/c4ccccc4)nn23)cc1 | -1.4 | 2.4
Cc1ccc(OCc2nc(-c3ccncc3)no2)cc1C | 0 | 2.4
COc1cc(O)ccc1C1CC(=O)Nc2c1c(=O)nc(SCc1ccccc1Cl)n2C (stereo not drawn) | -0.05 | 1.7
O=C1C2N=NN(Cc3ccccc3)C2C(=O)N1c1ccc(F)cc1 (stereo not drawn) | -0.65 | 1.9
Cc1[nH]c(C)c(S(=O)(=O)NC2CCCc3ccccc32)c1C(=O)N1CCCC1 (stereo not drawn) | . | -0.22
Clc1cccc(CNc2ncnc3c2nc2n3CCCCC2)c1 | . | -0.36
NC1(C(=O)O)CCSCC1 | -1.3 | .
CCOC(=O)Cc1csc(NC(=O)COCC(=O)O)n1 | -1.2 | .
CC1CCCCN1CCNS(=O)(=O)c1ccc2c(c1)n(C)c(=O)c(=O)n2C (stereo not drawn) | -1.2 | -1.5
O=C(CCCCn1c(=S)[nH]c2ccsc2c1=O)NCc1ccco1 | -0.71 | .
C=CCN(Cc1nc(-c2cccc(C)c2)no1)C(=O)NC1CCCCC1 | -0.21 | -0.3
CCCCOCCCN1CC(O)=C(c2nc3ccccc3s2)C1=N | -0.61 | 0.49
Cc1noc2ncnc(N3CCCC(C(=O)N4CCC(C(N)=O)CC4)C3)c12 (stereo not drawn) | . | 0.98
CN(C(=O)Nc1ccccc1)n1cnc2ccsc2c1=O | -0.59 | .
Cc1cc(C)cc(Nc2c(-c3ccc(C(C)C)cc3)c(=O)c2=O)c1 | . | 0.72
CCOCCCNC(=O)N1c2ccccc2NC2=C(C(=O)CCC2)C1c1ccco1 (stereo not drawn) | . | 0.02
CCOCCc1nn2c(=O)cc(COC(=O)c3ccc(F)cc3)nc2s1 | . | -0.62
Cc1cc2c(cc1NC(=O)c1ccco1)n(C)c(=O)n2C | -1.3 | 1.3
Cc1cc(C)c(-c2c(N(Cc3ccccc3)C(C)C)c(=O)c2=O)cc1C | . | 0.52
Cc1ccc(CNC(=O)CCc2nc3sc4c(c3c(=O)[nH]2)CCCCC4)o1 | . | 1.8
C=C(C)COc1ccc2oc(C)c(C(=O)OCC)c2c1 | -2 | 0.55
Cc1cc(C)n2nc(-c3ccccc3)cc2n1 | -0.54 | -0.23
Cc1nc(N)[nH]c(=O)c1Cc1c(Cl)cccc1Cl | -1.9 | .
O=C(CNC(=O)c1ccco1)OCc1cc(=O)n2ccsc2n1 | . | 0.08
Cc1ccccc1-c1nc2cc(NCc3cccs3)ccc2o1 | 0.21 | -0.02
O=C1O[C@@H]2C[C@H]3C[C@@H]2[C@@H]1[C@H]3C(=O)N1CCOCC1 | -1.8 | 2.9
Cc1nc2sc3c(NCc4ccccc4)ncnc3c2c2c1COC(C)(C)C2 | -1.7 | 1
CN(C)c1ccc(-c2nc3cnccn3c2Nc2ccc(Cl)cc2)cc1 | -2.3 | 0.92
COc1ccc(-c2nnc(SCC(=O)Oc3cccc(OC)c3)o2)cc1 | -0.91 | -0.52
Cn1nc(C(=O)NCCN(Cc2ccco2)C2CCCC2)c2c1-c1ccccc1SC2 | -1.3 | 1.6
O=C(Nc1ccc(Cl)c(Cl)c1)Nc1nnc(-c2ccccc2I)s1 | -6.6 | .
O=C(NC1CCCc2ccccc21)c1ccc2c(c1)nc1n2CCCCC1 (stereo not drawn) | . | 0.98
COc1ccc(-c2cc(N)n(S(=O)(=O)c3ccccc3)n2)cc1OC | -1.1 | 0.97
Cc1ccc(CNC(=O)NCCn2cnc3cc(C(=O)NC(C)C)ccc32)cc1 | . | 0.67
O=C(NC(c1ccccc1)c1cccnc1)c1ccccc1Br (stereo not drawn) | -1.1 | 0.04
CCCCn1c(Cn2ccnc2C)nc2cc(NC(=O)C(C)C)ccc21 | -0.79 | 0.75
Cc1ccc2nc(Nc3nc(-c4ccc(F)cc4)cc(=O)[nH]3)nc(C)c2c1 | -1.3 | -0.28
O=c1[nH]c(-c2cc(Cl)ccc2O)nc2c1Cc1cc(F)ccc1O2 | 0.26 | 0.01
CC(C)Nc1nc(-c2ccc(Cl)cc2Cl)nc2ccccc12 | 0.49 | .
